RE007 growth inh: less growth of the S. pombe RE007 Vpr strain. 0.21% of 360,000 active. Potency, µM (series often up to 92.2 µM), for inactives: at the top dose activity change, negative = less growth. AID 651644. S. pombe RE007 Vpr strain, BacTiter-Glo ATP luminescence, 24 h; control for the full effect not named in the record; active = well fitted falling curve with a large enough effect; inconclusive = small, poorly fitted or top-dose-only effect; inactive = no such curve, though single readings can be large or run the other way;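 also: % is scaled to controls: 0 for no effect and ±100 for the full control effect; nearly all actives have a fitted effect of over 50% in size; the assay follows cell death caused by Vpr and the record does not say whether a fall means rescue or toxicity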
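Fission yeast strain RE007, carrying one chromosomally integrated HIV-1 vpr copy, was seeded at OD 0.01 in PMG+AL medium with 23 nL pinned compound. After 24 h at 30 °C and 99% humidity, viability was read by BacTiter-Glo luminescence.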
StopGo reporter: FMDV 2A StopGo reporter, luciferase signal; human cells with a luciferase reporter of 2A StopGo recoding; control for the full effect not named in the record; AID 1159524; Potency, µM (highest dose often 57.9 µM), inactives show at the highest dose signal change, negative = less light; 1.2% of 410,000 active; active = well fitted falling curve with a large enough effect; inconclusive = small, poorly fitted or top-dose-only effect; inactive = no such curve, though single readings can be large or run the other way; tested in HEK293T cells; also: % is scaled to controls: 0 for no effect and ±100 for the full control effect; nearly all actives have a fitted effect of over 45% in size; luciferase light after 4 h
Cruzain noTriton: blocks cruzain activity in detergent-free assay. purified cruzain, Z-FR-AMC fluorescence, no detergent. 2.3% of 200,000 active. P25779. Potency, µM, inactives show max response, negative = inhibition, actives largely listed as inhibitors. AID 1476; active = well fitted curve in the direction sought with a large enough effect; inconclusive = small, poorly fitted or top-dose-only effect, or another doubt; inactive = no such curve, though single readings can be large; an effect the other way counts as inactive or inconclusive;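 also: plate controls were enzyme without inhibitor for no effect and buffer without enzyme for full effect; nearly all actives have a fitted effect of over 40% in size; top concentration of the series not given in the record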
Target sequence (P25779 123-467 limits assumed): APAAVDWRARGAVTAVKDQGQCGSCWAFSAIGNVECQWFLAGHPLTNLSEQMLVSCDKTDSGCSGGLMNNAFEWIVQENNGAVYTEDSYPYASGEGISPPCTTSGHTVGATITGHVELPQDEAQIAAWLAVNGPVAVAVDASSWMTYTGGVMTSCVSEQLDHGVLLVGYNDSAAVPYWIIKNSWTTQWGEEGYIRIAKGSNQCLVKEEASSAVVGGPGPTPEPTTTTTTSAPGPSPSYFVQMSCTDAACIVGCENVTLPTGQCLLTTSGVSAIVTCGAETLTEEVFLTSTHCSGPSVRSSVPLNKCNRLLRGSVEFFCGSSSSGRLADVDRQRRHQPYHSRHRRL
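Purified cruzain at 1.5 nM, pre-incubated 15 min with compound at room temperature in 100 mM sodium acetate pH 5.5, 5 mM DTT, 0.00005% Triton X-100. Reaction started with 2 uM Z-FR-AMC; AMC fluorescence increase over 60 s gives rate.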
Cruzain Triton: inhibitors of Trypanosoma cruzi cruzain with detergent. P25779. purified cruzain, Z-FR-AMC fluorescence, 0.01% Triton. Potency, µM, without a hit: max response, negative = inhibition, most hits filed as inhibitors. 0.43% of 200,000 active. AID 1478; active = well fitted curve in the direction sought with a large enough effect; inconclusive = small, poorly fitted or top-dose-only effect, or another doubt; inactive = no such curve, though single readings can be large; an effect the other way counts as inactive or inconclusive;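 also: plate controls were neutral wells for no effect and buffer without enzyme for full effect; nearly all actives have a fitted effect of over 40% in size; top concentration of the series not given in the record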
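In this qHTS format, compounds are incubated with 1.5 nM cruzain for 15 min at room temperature before 2 uM Z-FR-AMC is added. Release of AMC is followed at 360/450 nm, and progress is taken as the 60 s fluorescence difference.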
Marburg entry inh: inhibitors of Marburg virus binding or cell entry; Potency, µM (series often up to 37.8 µM), for the others: top-dose activity change, negative = inhibition, hits mostly inhibitors; AID 540276; 1.8% of 300,000 active; Marburg virus pseudotyped entry inhibition, cell reporter; control for the full effect not named in the record; about a third of the inactives were read at about 46 µM; active = well fitted inhibition curve with a large enough effect; inconclusive = small, poorly fitted or top-dose-only effect, or effect the other way; inactive = flat fitted curve, though single readings scatter; tested in HEK293 cells; about a fifth of its hits are not listed in these tables; also: % is scaled to controls: 0 for no effect and ±100 for the full control effect; luciferase read-out
LASV entry inh: inhibitors of Lassa virus binding or cell entry; Lassa virus pseudotype entry inhibition, cell reporter; control for the full effect not named in the record; Potency, µM (titrated, usually from 37.9 µM), inactives show at the highest dose activity change, negative = inhibition, usual class: inhibitors; 1.2% of 300,000 active; AID 540256; active means well fitted inhibition curve with a large enough effect; inconclusive means small, poorly fitted or top-dose-only effect, or effect the other way; inactive means flat fitted curve, though single readings scatter; tested in HEK293 cells; also: % is scaled to controls: 0 for no effect and ±100 for the full control effect; nearly all actives have a fitted effect of over 50% in size; luciferase read-out
NS1 inh: inhibitors of influenza NS1 protein function | 0.4% of 270,000 active | Potency, µM (highest dose often 46.1 µM), inactives show at the highest dose activity, positive = more growth | S. cerevisiae slowed by influenza A NS1, growth recovery by OD600; also: actives are rising curves; nearly all actives have a fitted effect of over 50% in size
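Compounds were scored for reversing the slow growth caused by influenza A NS1 in S. cerevisiae, measured by optical density at 600 nm. Assay medium contained 2% galactose at pH 6.0; NS1-free yeast of the same strain were the positive control.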
SARS PLpro yeast: SARS-CoV PLP inhibition in yeast | S. cerevisiae expressing SARS-CoV PLpro, growth rescue; control for the full effect not named in the record | Potency, µM (doses to about 32.9 µM), for the others: at the highest dose activity, positive = growth rescue | 0.19% of 330,000 active; also: 0% is about no effect; nearly all actives have a fitted effect of over 55% in size; growth read by luminescence after 48 h
An asterisk follows results filed as active; u = inconclusive; x = not tested or not shown; & = joins results of further samples; [ ] = dose if it differs, or a comment. Unless noted, calls follow the shape of the dose curve; as a rule, active means well fitted rising curve with a large enough effect; inconclusive means small, poorly fitted or top-dose-only effect; inactive means no such curve, though single readings can be large or run the other way. Potency is read from the fitted curve at half-maximal effect.

SMILES	RE007 growth inh	StopGo reporter	Cruzain noTriton	Cruzain Triton	Marburg entry inh	LASV entry inh	NS1 inh	SARS PLpro yeast
OCC1CCN(Cc2cn(Cc3ccccc3)nc2-c2cc3ccccc3o2)CC1	4%	12%	x	x	u	u	2%	0%
Cc1nn(C)c(C(=O)N/N=C/c2ccc(Br)cc2)c1Cl	7%	-16%	-5%	-1.9%	10%	14%	6%	-3%
COC(=O)[C@@H](NC(=O)N(C1CCCCC1)C1CCCCC1)C(C)C	0%	-14%	9%	-2.2%	-10%	23%	9%	1%
CC(=O)Nc1ccc(NC(=O)c2c([N+](=O)[O-])cnn2C)cc1	9%	8%	x	x	16%[46.1 µM]	-13%[46.1 µM]	-4%	18%
CCOC(=O)c1nnn2c1nc(N1CCOCC1)c1ccccc12	2%	2%	x	x	-1%[46.1 µM]	-8%[46.1 µM]	0%	0%
C/C(CCc1ccc2c(c1)OCO2)=N\N=C1\NC(=O)CC(C(=O)Nc2ccc(Cl)cc2)S1 (stereo not drawn)	3%	3%	4%	-2.7%	0%	u	17%	-7%
CSc1nc2c(sc3ccccc32)c(=O)n1Cc1ccc(C)cc1	x	-7%	10%	2.2%	x	u	x	x
O=C(O)CSc1ccccn1	25%	-14%	-12%	0.9%	u	18%	-20%	u
COc1cc(S(=O)(=O)Nc2ccc3cn[nH]c3c2)ccc1Cl	14%	15%	x	x	-23%[46.1 µM]	u	x	5%
O=C(Nc1cc(Cl)cc(Cl)c1)C1CCC(=O)N1Cc1ccccc1Cl (stereo not drawn)	22%	-22%	-5%	-3.6%	-30%	u	-1%	-13%
COc1cc(/C=C(\C#N)C(=O)NCc2cccs2)ccc1O	-1%	47%[activator]	-7%	-3.4%	u	2%	-3%	-1%
NS(=O)(=O)c1ccc(CNC(=O)c2cc(=O)c3ccccc3o2)cc1	-7%	-19%	x	x	-7%[46.1 µM]	-6%[46.1 µM]	-1%	9%
CC(C)(C)c1nc(SCC(=O)NC2CCCC2)c2ccccc2n1	-4%	-4%	x	x	-13%	u	-11%	0%
COc1cc(OC)c(OC)cc1CNCCSc1nnnn1-c1ccccc1	x	24%	0%	0.5%	6%[46.1 µM]	0%[46.1 µM]	x	x
CC1CCN(c2ccc(S(=O)(=O)N3CCC(C)CC3)cc2N)CC1	1%	u	x	x	x	x	2%	7%
CC(=O)Nc1ccc(NC(=O)CSc2nnc(-c3ccco3)n2Cc2ccco2)cc1	23%	24%	3%	3.8%	10%	-20%	-6%	1%
Nc1nonc1N1CCCCC1	10%	-12%	-14%	7.1%	u	-1%	3%	u
COc1ccc(N2CCN(C(=O)c3cc(=O)c4ccc(C)cc4o3)CC2)cc1	-7%	-6%	x	x	x	x	9%	-2%
Cc1ccc(-c2nc(CCN3C(=O)c4ccccc4C3=O)cs2)cc1	-17%	3%	3%	2.3%	u	u	1%	-1%
CC(=O)Nc1ccc(Nc2nc3ccccc3nc2NS(=O)(=O)c2ccc(Cl)c([N+](=O)[O-])c2)cc1	15%	70%[activator]	x	x	0%	u	x	x
Cc1ccccc1-c1nc2sc3c(c2c(=O)o1)CCC3	7%	25%	-3%	-5.4%	4%	17%	-12%	-3%
COc1ccccc1N1CCN(S(=O)(=O)c2c(C)sc3ncn(CC(=O)NCCN(C)C)c(=O)c23)CC1	-4%	-5%&3%	1%	1.1%	-25%&12%[46.1 µM]	1%&9%[46.1 µM]	-7%	10%
CCN(CC(=O)Nc1ccc(OC)cc1)C(=O)CCc1nc2ccccc2c(=O)[nH]1	1%	-8%	x	x	-23%	16%	x	1%
O=C1CC(c2ccc(F)cc2)Sc2nc(-c3ccccc3)c(-c3ccccc3)n21 (stereo not drawn)	15%	u	u	-3.8%	8%	-12%	0%	-14%
CC(C)NC(=O)C12CC3CC(C1)CC(n1cnc(Cl)n1)(C3)C2	7%	10%	0%	6.8%	18%	3%	-1%	4%
CC1CCCN(C2(O)C(=O)Nc3ccc(Br)cc32)C1 (stereo not drawn)	-7%	-2%	x	x	x	x	-7%	0%
Cc1ccc(SCC(=O)OCC(=O)NC2CCCCCC2)cc1	-8%	1%	x	x	x	x	-13%	2%
Cc1cccc(C)c1NC(=O)c1c(-c2ccccc2)noc1C	11%	x	-4%	4.6%	-18%	-1%	-5%	0%
Cc1cccc(CNC(=O)c2ccccc2N)c1	-1%	46%[activator]	4%	0.7%	15%	-9%	8%	-5%
COc1ccc(NC(=O)CCN2CCN(c3ccc(F)cc3)CC2)cc1	-3%	1%	x	x	x	x	1%	1%
CCCC(NC(=O)CCc1c(C)c2cc3c4c(oc3c(C)c2oc1=O)CCCC4)C(=O)O (stereo not drawn)	8%	-29%	x	x	-1%[46.1 µM]	-25%[46.1 µM]	17%	-2%
Cn1c(SCC(=O)N2CCN(c3ccccc3)CC2)nnc1-c1ccncc1	-21%	0%	-12%	0.1%	0%	15%	-6%	6%
CCCCc1cn(C[C@H]2CC[C@@H]([C@@H]3CC[C@H](Cn4cc(CCCC)nn4)O3)O2)nn1	-4%	-4%	x	x	x	x	-10%	4%
CCN(CC)c1ccc(S(=O)(=O)N2CCCCC2)cc1NC(=O)C1CCC1	19%	8%	x	x	u	-16%	x	-4%
COc1ccc(N(Cc2cccs2)C(=O)c2ccco2)cc1	x	-17%	-3%	-3.7%	u	-3%[46.1 µM]	x	x
COc1ccc(CCN(C)C(=O)C2CCCN(Cc3ccc(OC)c(OC)c3)C2)cc1OC (stereo not drawn)	-19%	-12%	-13%	7.0%	-25%&-25%[46.1 µM]	23%[46.1 µM]	5%&-3%	2%&0%
O=C(Nc1cccc(C(=O)N2CCOCC2)c1)c1cncc(Br)c1	-15%	6%	-6%	1.6%	-3%[46.1 µM]	-18%	2%	x
O=C(CSc1n[nH]c(=O)n1C1CC1)Nc1ccc(F)c([N+](=O)[O-])c1	-18%	-27%	x	x	u	2%	x	3%
CCOc1cc(CNCCc2c[nH]c3ccccc23)cc(Cl)c1OC	-4%	u	x	x	u	-19%	-11%	-2%
COC(=O)C1CCN(CC(=O)Nc2ccc(C(=O)Nc3ccccc3OC)cc2)CC1	-19%	0%	x	x	x	0%	x	-1%
Clc1ccc2nc(N3CCCCC3)[nH]c2c1	-17%	0%	-1%	-3.0%	-22%	-26%	-11%	-8%
O=C(COC(=O)Cc1cccc(C(F)(F)F)c1)NCC1CCCO1 (stereo not drawn)	15%	x	6%	1.5%	u	-17%	-11%	2%
CCSC(=O)NC1CCCCC1	15%	8%	x	x	7%[46.1 µM]	u	7%	0%
CCOc1ccc(OCC)c(NC(=O)c2nnn(CC(=O)Nc3cc(Cl)ccc3OC)c2N)c1	x	-28%	2%	-2.1%	-12%[46.1 µM]	-2%[46.1 µM]	x	x
CCOc1ccc(NC(=O)Cn2nc(-c3ccccc3Cl)n(CC)c2=S)cc1	10%	u	-2%	0.5%	u	-29%	-3%	5%
CC(=O)Nc1ccc(S(=O)(=O)N2CCC(C(=O)c3ccc(Cl)cc3)CC2)cc1	3%	-25%	x	x	u	u	6%	-5%
O=S(=O)(c1ccc(OCC(O)CN2CCCC2)cc1)N1CCOCC1 (stereo not drawn)	-2%	-19%	-1%	2.4%	-9%	1%	6%	17%
O=C(OC(C(=O)NCc1ccc2c(c1)OCO2)c1ccc(Cl)cc1)c1ccco1 (stereo not drawn)	30%	-5%	-12%	-19%	u	12%	-40%	-4%
O=C(OCc1ccco1)c1ccc(S(=O)(=O)N2CCCCC2)cc1	-2%	-23%	-5%	-9.2%	0%[46.1 µM]	10%	8%	1%
Cc1nc(C(N)=O)nc2ccccc12	-16%	-4%	x	x	x	x	2%	2%
Cc1coc2cc3oc(=O)c(CCC(=O)N4CCCCC4)c(C)c3cc12	x	12%	-4%	-8.7%	16%[46.1 µM]	15%[46.1 µM]	x	x
CCOCCOC(NC(=O)c1ccccc1)(C(F)(F)F)C(F)(F)F	-9%	-27%	-8%	-2.1%	6%	-2%	5%	17%
CC(C)(C)c1ccc(-c2n[nH]c(=S)n2CC2CCCO2)cc1 (stereo not drawn)	0%	-21%	x	x	-9%[46.1 µM]	u	0%	0%
Cc1ccc(Nc2c(-c3ccc(C)s3)nc3ccccn23)cc1	x	23%	10%	-9.2%	u	20%[46.1 µM]	x	x
COc1ccc(OC)c(NC(=O)c2c(NCc3ccc(C)o3)sc3c2CCCCC3)c1	x	0%	-3%	-13%	x	1%[46.1 µM]	x	x
Cc1cccc(OCC(=O)Nc2nccs2)c1C	-4%	20%	x	x	x	x	-25%	-2%
Cc1nnc(N2CCN(C(=O)NC(C)C)CC2)c2nn(-c3ccccc3)c(C)c12	x	0%	-3%	-2.8%	x	26%[46.1 µM]	x	x
CN(C)c1ccc(-c2n[nH]c(=S)n2-c2ccccc2)cc1	1%	-7%	x	x	-23%[46.1 µM]	-22%[46.1 µM]	x	1%
Cc1ccc(C)n1-n1c(C)nc2sc(-c3ccccc3)cc2c1=O	-31%	u	-7%	-3.5%	u	u	-32%	-18%
C=CCOc1ccccc1CNn1nnnc1N	6%	9%	-9%	0.2%	6%	u	-3%	12%
(continued)
SMILES	RE007 growth inh	StopGo reporter	Cruzain noTriton	Cruzain Triton	Marburg entry inh	LASV entry inh	NS1 inh	SARS PLpro yeast
Cc1cc(C)c(S(=O)(=O)NCC(c2cccs2)S(=O)(=O)c2ccccc2)c(C)c1 (stereo not drawn)	x	10%	17%	2.6%	x	u	x	x
O=C(CCC(=O)OCc1cccc(C(=O)Oc2ccccc2)c1)Nc1cccc2ccccc12	-12%	31%[activator]	1%	-2.0%	13%	25%	12%	u
CNC(=O)NC(=O)C(OC(=O)CCNS(=O)(=O)c1ccccc1)c1ccccc1 (stereo not drawn)	4%	0%	x	x	x	x	8%	u
Cc1c(C(=O)N2CCCCC2)c(S(=O)(=O)NCc2ccc(N(C)C)cc2)c(C)n1C	9%	1%&4%	16%	2.2%	-4%&-4%[46.1 µM]	5%&10%[46.1 µM]	-17%	-14%
CN(C)c1ccc(N=Nc2ccccc2C(=O)OCC(=O)NC2CCCC2)cc1	-10%	1%	11%	-13%	u	u	-12%	-54%
CCN=C1SC(CC(N)=O)C(=O)N1CC (stereo not drawn)	7%	0%	x	x	1%[46.1 µM]	-1%	2%	1%

Source: PubChem (National Center for Advancing Translational Sciences (NCATS))
